Assay outcomes as filed in PubChem.
AmpC nodet inh: inhibitors of E. coli AmpC beta-lactamase without detergent. P00811. AmpC nitrocefin hydrolysis, absorbance 480 nm, no detergent; potencies from a single point are estimates. Potency, µM (titrated, usually from 28.7 µM), for inactives: at the highest dose activity change, negative = inhibition. hit rate 1.8% among 71,000. AID 585; active = falling curve, for most hits resting on a single point; inconclusive = weak or doubtful change; inactive = flat or rising curve; further: % of control where 0% means no effect; about half of the hits show no inhibition at the top dose; a quarter of the inactives give rising signals
Target sequence (P00811 whole entry, looked up): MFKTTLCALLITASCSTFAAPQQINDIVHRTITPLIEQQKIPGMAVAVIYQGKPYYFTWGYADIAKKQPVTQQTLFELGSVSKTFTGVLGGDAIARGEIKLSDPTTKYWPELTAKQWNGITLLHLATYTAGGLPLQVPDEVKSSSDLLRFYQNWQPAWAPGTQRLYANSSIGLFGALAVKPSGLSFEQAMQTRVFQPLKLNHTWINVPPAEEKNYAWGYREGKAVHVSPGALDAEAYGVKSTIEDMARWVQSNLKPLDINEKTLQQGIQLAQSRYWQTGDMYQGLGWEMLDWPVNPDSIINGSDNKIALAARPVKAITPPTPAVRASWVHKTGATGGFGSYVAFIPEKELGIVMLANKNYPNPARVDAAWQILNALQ
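AmpC, 20 mM phosphate pH 7.0; 15 min cpd preinc, RT; start with nitrocefin (800 uM stock); A480 kinetic read, 20 s intervals, 4 min. No-enzyme wells = negative control.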
Starred values were filed as active, the others as inactive; ? = inconclusive; [ ] = another dose, or the depositor's remark. Potency means the concentration at half of the fitted maximal effect. Some of the compounds tested. The share of hits here may be higher or lower than overall.

Preview (20 entries):
SMILES	AmpC nodet inh
CCN1C(=O)C2(Nc3ccccc3-c3nc4ccccc4n32)c2cc(OC)ccc21 (stereo not drawn)	39%
CCOC(=O)CC(SP(=O)(OC)OC)C(=O)OCC (stereo not drawn)	0%
CCN1CCN(CC(=O)Nc2ccc3c(c2)OCCO3)C(=O)C1=O	0%
O=S(=O)(NCc1ccco1)c1cccc(S(=O)(=O)N2CCCCC2)c1	-8%
COc1ccccc1NC(=O)CSCC(N)=O	-3%
Cn1c(=O)c(-c2ccccc2)nc2cncnc21	13%
N#Cc1nc(-c2ccc(Cl)cc2)oc1NCc1cccc2c1OCO2	5%
COC(=O)c1sc(NC(=O)c2cnccn2)c(C(=O)OC)c1C	50%
CCSc1nc2c(c(=O)n1Cc1ccccc1)SC(C)C2 (stereo not drawn)	2%
O=C(NCCCN1CCN(CCCNC(=O)c2ccccc2F)CC1)c1ccccc1F	10%
COc1ccc(-c2nnn(CC(=O)N(CC(=O)NC3CCCC3)c3cccc(C)c3)n2)cc1OC	122%
CCN(CC)S(=O)(=O)c1ccc(NC(=O)c2c(-c3ccccc3)noc2C)cc1	4%
O=[N+]([O-])c1ccc2nc(N3CCNCC3)ccc2c1	1%
O=c1[nH]c(=O)n(C2CCCCCC2)c(O)c1C=NCC1CCCO1 (stereo not drawn)	4%
O=C(Nc1nccs1)c1cccc(S(=O)(=O)N2CCOCC2)c1	-6%
Cc1sc(NC(=O)c2ccc(Cl)s2)c(C(N)=O)c1C	-16%
CCCCc1c(O)nc(SCC(=O)N2CCCCC2)n(-c2ccccc2C)c1=O	0%
CCOC(=O)CSc1nnc2n1C(C)(C)Cc1ccccc1-2	14%
Cc1ccc(C)c(NC(=O)CSc2nc3c(c(=O)n2C)SC(C)C3)c1 (stereo not drawn)	8%
CCCCN1C(=O)c2ccccc2C1C(=O)NC1CCCC1 (stereo not drawn)	-1%

All compounds of this part, from the start:
SMILES	AmpC nodet inh
CCN1C(=O)C2(Nc3ccccc3-c3nc4ccccc4n32)c2cc(OC)ccc21 (stereo not drawn)	39%
CCOC(=O)CC(SP(=O)(OC)OC)C(=O)OCC (stereo not drawn)	0%
CCN1CCN(CC(=O)Nc2ccc3c(c2)OCCO3)C(=O)C1=O	0%
O=S(=O)(NCc1ccco1)c1cccc(S(=O)(=O)N2CCCCC2)c1	-8%
COc1ccccc1NC(=O)CSCC(N)=O	-3%
Cn1c(=O)c(-c2ccccc2)nc2cncnc21	13%
N#Cc1nc(-c2ccc(Cl)cc2)oc1NCc1cccc2c1OCO2	5%
COC(=O)c1sc(NC(=O)c2cnccn2)c(C(=O)OC)c1C	50%
CCSc1nc2c(c(=O)n1Cc1ccccc1)SC(C)C2 (stereo not drawn)	2%
O=C(NCCCN1CCN(CCCNC(=O)c2ccccc2F)CC1)c1ccccc1F	10%
COc1ccc(-c2nnn(CC(=O)N(CC(=O)NC3CCCC3)c3cccc(C)c3)n2)cc1OC	122%
CCN(CC)S(=O)(=O)c1ccc(NC(=O)c2c(-c3ccccc3)noc2C)cc1	4%
O=[N+]([O-])c1ccc2nc(N3CCNCC3)ccc2c1	1%
O=c1[nH]c(=O)n(C2CCCCCC2)c(O)c1C=NCC1CCCO1 (stereo not drawn)	4%
O=C(Nc1nccs1)c1cccc(S(=O)(=O)N2CCOCC2)c1	-6%
Cc1sc(NC(=O)c2ccc(Cl)s2)c(C(N)=O)c1C	-16%
CCCCc1c(O)nc(SCC(=O)N2CCCCC2)n(-c2ccccc2C)c1=O	0%
CCOC(=O)CSc1nnc2n1C(C)(C)Cc1ccccc1-2	14%
Cc1ccc(C)c(NC(=O)CSc2nc3c(c(=O)n2C)SC(C)C3)c1 (stereo not drawn)	8%
CCCCN1C(=O)c2ccccc2C1C(=O)NC1CCCC1 (stereo not drawn)	-1%
Cc1cccnc1NCc1ccc(O)c2ncccc12	1%
Cc1cccc(C(=O)NCc2nnc(SCC(=O)N3CCN(c4ccccc4)CC3)n2C)c1	71%
N#Cc1nc(-c2ccccc2F)oc1NC1CCCCC1	4µM*[single pt active]
COC(=O)C1=C(CSc2nc3ccccc3o2)NC(=O)NC1c1cc(C)ccc1C (stereo not drawn)	18%
O=C1OC(c2ccc(Br)cc2)=N/C1=C\N1CCCCC1	67%
CCCCNC(=O)CCCCCNS(=O)(=O)c1ccc(OC)cc1	11%
OCCN(CCO)c1ncnc2nc[nH]c12	5%[5.75 µM]
CC(=O)c1ccc(NC2OC(CO)C(O)C(O)C2O)cc1 (stereo not drawn)	1%
COc1cccc(CNc2nn[nH]n2)c1OC	2%
O=C(CCn1c(=S)[nH]c2ccccc2c1=O)NCCCN1CCCC1=O	1%
COc1cc(NC(=O)CCc2ccccc2)nc(OC)n1	2%
CN1CCN(c2nc3c(c(=O)[nH]c(=O)n3C)n2Cc2cccc3ccccc23)CC1	42%
CCOC(=O)C1CCCN(S(=O)(=O)Cc2ccccc2)C1 (stereo not drawn)	-11%
CCOC(=O)CC(=O)CSc1nnc(Cn2c(=O)sc3ccccc32)n1C	5%
CN1CCN(C(=O)c2ccc3c(c2)NC(=O)C(N2CCOCC2)S3)CC1 (stereo not drawn)	-9%
CCCOc1ccc(C2/C(=C(\O)c3c(C)[nH]c(C(=O)OC)c3C)C(=O)C(=O)N2CCN(C)C)cc1 (stereo not drawn)	0%
Cc1noc(C)c1CSc1nnc(-c2ccccc2F)n1CCc1ccccc1	76%
c1ccc(Cn2nnnc2-c2ccco2)cc1	-3%
Cc1cccc(-c2noc(-c3ccc(F)cc3)n2)c1	-10%
O=C(C1CCCN(S(=O)(=O)c2ccc(Br)s2)C1)N1CCCCCC1 (stereo not drawn)	57%
CC1(C)[C@@H]2CC[C@]1(C)[C@@H](OC(=O)CSC#N)C2	-9%[5.75 µM]
O=C(N1CCN(c2ccccc2F)CC1)C12CC3CC(CC(C3)C1)C2	49%
CCC(C)NC(=O)CNC(=O)Cn1c(C)cc2ccccc2c1=O (stereo not drawn)	16%
CN(C)S(=O)(=O)N1CCN(c2cc(Cl)ccc2Cl)CC1	32%
CC(C)P(=O)(Cc1cccc(C#N)c1)C(C)C	5%
C=CCC1CCCCC12NC(=O)NC2=O (stereo not drawn)	0%
CN(C)S(=O)(=O)N(CC(=O)NCc1ccccc1)c1ccccc1	2%
COc1cc(-c2nnc3sc(-c4ccco4)nn23)cc(OC)c1OC	32%
O=C(O)c1cc(N=Nc2ccc([N+](=O)[O-])cc2)ccc1O	-9%[5.75 µM]
c1ccc2c(c1)nc(NC1CCCCC1)c1nncn12	40%
COCC(COCCCNC(=O)Nc1ccc(Br)cc1)OC (stereo not drawn)	18%
Cn1cccc1C(=O)N1CCC2(CCCN(Cc3ccncc3)C2)CC1	137%
CCCc1[nH]nc2c1C(c1ccc(O)c(OC)c1)C(C#N)=C(N)O2 (stereo not drawn)	-3%
COc1ncnc2c1oc1nc(CC(C)C)c3c(c12)CCCC3	73%
O=C(Cn1nnc2c(cnn2-c2ccccc2)c1=O)NCc1cccs1	-22%
CCCn1c(CCNC(=O)c2cccs2)nc2ccccc21	7%
COCCNC(=O)C(c1ccccc1C)N(CCOC)C(=O)Cn1nnc2ccccc21 (stereo not drawn)	?
CCOC(=O)c1ccc(COc2nc3ccccc3nc2-c2ccccc2NC(C)=O)o1	49%
c1cncc(CNCc2cccnc2)c1	-1%[5.75 µM]
CCN1C(=O)c2ccccc2S(=O)c2ccc(C(=O)NCCCN3CCCC3=O)cc21 (stereo not drawn)	31%

(list continues)
SMILES	AmpC nodet inh
COc1ccc(OCC(=O)Nc2cc(OC)cc(OC)c2)cc1	9%
NC[C@@H]1O[C@H](O[C@@H]2[C@H](O[C@@H]3O[C@H](CO)[C@@H](O)[C@@H]3O)[C@@H](O)[C@@H](N)C[C@H]2N)[C@@H](N)[C@H](O)[C@@H]1O	-2%[12.8 µM]
O=C(Nc1ccc(Cl)cc1)C1CCCN(S(=O)(=O)c2cnc[nH]2)C1 (stereo not drawn)	4%
O=C(Oc1ccccc1)c1cc2ccccc2o1	-2%
CCOC(=O)N1CCN(CCC(=O)Nc2ccc(C)c(Br)c2)CC1	6%
COc1ccc(NC(=O)CN2C(=O)C(C)Oc3ccccc32)c(OC)c1 (stereo not drawn)	11%
CCn1c(CSc2ncccn2)nnc1SCC(=O)N1c2ccccc2CC1C (stereo not drawn)	62%
COCCCN1C(=O)C(=O)/C(=C(/O)c2ccc(C)cc2)C1c1ccccc1 (stereo not drawn)	10%
N#Cc1cccc(-c2cc(NCc3cccnc3)ncn2)c1	-23%
O=C(CCC(=O)c1ccc(F)cc1)OC1CCOC1=O (stereo not drawn)	1%
Cc1cc(C)n(C(=O)c2ccc(NC(=O)C3COc4ccccc4O3)cc2)n1 (stereo not drawn)	-4%
COC(=O)C1CCN(C(=O)Cc2ccc(Br)cc2)CC1	11%
COCCNc1nc(-c2ccccc2Cl)nc2ccccc12	4%
C=CCc1ccc(OCC(O)CN2CCCCC2)c(OC)c1 (stereo not drawn)	2%
CCn1cnc2cc(NCc3ccc(C)cc3)ccc21	18%
Cc1cccc(NC(=O)CS(=O)(=O)c2c[nH]c3ccccc23)c1C	0%
Clc1ccc(-c2nnc(-c3ccco3)o2)cc1	-10%
CSC1=C(C#N)C2(CCCC2)C(C#N)=C(N)N1	-21%
CCn1c(C(=O)N2CCCC(C(=O)O)C2)cc2sccc21 (stereo not drawn)	-7%
O=C(CCCSc1nnc(-c2cccs2)n1CC1CCCO1)c1ccccc1 (stereo not drawn)	53%
O=C1[C@@H]2C=CC=CC2=NC(=S)N1CCN1CCC(=C(c2ccc(F)cc2)c2ccc(F)cc2)CC1	6.3µM*
CC1CCc2cc(F)ccc2N1C(=O)CCC(=O)O (stereo not drawn)	-20%
COc1ccc(C(=O)NCc2oc(-c3ccccc3)cc2C(=O)O)cc1	-10%
COc1ccc(CCNC(=O)C2CCCN(S(=O)(=O)c3cnc[nH]3)C2)cc1OC (stereo not drawn)	-7%
CCCSc1nc2c(c(=O)[nH]c(=O)n2C)n1CCc1ccccc1	16%
COc1ccc(-c2noc(CSc3nc(-c4ccccc4)cc(=O)[nH]3)n2)cc1OC	59%
CCCOc1ccc(CN(CCO)CCO)cc1C(=O)OC	24%
COC(=O)NCc1ccc(CNC(=O)OC)cc1	-6%
O=C(CCn1c(=O)[nH]c2ccccc2c1=O)N1CCN(c2ccc(Cl)cc2)CC1	33%
CCSc1nc(O)cc(=O)n1-c1ccc(OC)cc1	-10%
CCC(Sc1nc2c(c(=O)[nH]1)CCC2)C(=O)Nc1cccc(OC)c1 (stereo not drawn)	-12%
COc1ccc(CCn2c(NCc3ccco3)nc3c2c(=O)[nH]c(=O)n3C)cc1	-12%
CC(=O)c1sc2nc(=O)c(C)nn2c1C	-3%
COc1ccc(C(c2sc3ncnn3c2O)N2CCN(c3ccccc3F)CC2)cc1OC (stereo not drawn)	90%
CC(=O)Oc1cccc(N2C(=O)C3CC=C(Cl)CC3C2=O)c1 (stereo not drawn)	18%
O=C(Cc1ccc(Cl)cc1)Nc1ccc2oc(-c3ccncc3)nc2c1	36%
COC(=O)c1cc2sccc2n1CC(=O)Nc1ccc(OC)c(OC)c1OC	39%
COc1ccc(C2C(C(=O)Nc3cccnc3)=C(C)Nc3nc(-c4ccco4)nn32)cc1 (stereo not drawn)	46%
COC(=O)Cn1c(C(=O)N(C)C)cc2c1C[C@H]1CN(C(=O)c3ccccc3)[C@@](Cc3ccc(OC)cc3)(C(=O)OC)[C@@H]21	170%
COc1ccc(NC(=O)c2c(NC(=O)CNCc3ccco3)sc3c2CCC3)cc1	4%
CCN(CC)CCOc1ccc(Br)cc1	-3%
CCn1cc(C(=O)NCCCN2CC(C)CC(C)C2)c2cc(OC)c(OC)cc2c1=O (stereo not drawn)	10%
CC1CN(C(=O)c2ccc3c(c2)OCO3)OC(c2ccccc2)O1 (stereo not drawn)	10%
CCn1cc(C(=O)NCCCN(C)c2ccccc2)c(=O)c2cc(S(=O)(=O)N(C)C)ccc21	34%
CCN(CC)S(=O)(=O)c1ccc(C(=O)Nc2ncn(Cc3ccccc3)n2)cc1	15%
CCc1ccc(C(c2ccc(CC)cc2)C(Cl)Cl)cc1	-4%
Cc1ccc(CNC(=O)[C@H](C)[C@H]2C[C@]2(C)[C@H](NC(=O)OCc2ccccc2)c2ccccc2)o1	59%
COCCn1nnnc1C(c1ccccc1)N1CCN(C)CC1 (stereo not drawn)	-18%
CCC1(C)Cc2ccccc2-c2c1c(=O)n(Cc1ccccc1)c1nnnn21 (stereo not drawn)	-12%
COc1ccc(CCCc2nnc(SCC(=O)Nc3ncc(C)s3)o2)cc1	30%
Cc1cc(-c2ccco2)n(CC(=O)NCCCc2ccccc2)n1	44%
CC(C)c1nc(SCC(=O)N2CCOCC2)c2c(=O)n(C)c(=O)n(C)c2n1	43%
CN(C)c1ccc(-c2nc(N(C)Cc3ccco3)c3ccccc3n2)cc1	16%
COc1ccccc1NC(=O)CSc1nc(O)cc(=O)[nH]1	-9%
COc1ccc(-c2c3c(=O)n(C)c(=O)n(C)c3cn2-c2cc(OC)ccc2OC)cc1	123%
CCCn1c(SCC(=O)Nc2nc(C)c(C(=O)OC)s2)nnc1C(C)C	78%
CCCNc1ncnc2[nH]ncc12	2%[5.75 µM]
C1CCCNCC1	-6%
COc1cccc(-c2nc(Nc3ccncc3)c3ccccc3n2)c1	73%
CCC1=C(C[C@H]2NCCc3cc(OC)c(OC)cc32)C[C@H]2c3ccccc3CCN2C1	25%[5.75 µM]

(further entries)
SMILES	AmpC nodet inh
O=C(Nc1ccc(S(=O)(=O)N2CCOCC2)cc1)C1CCCCC1	21%
Cc1cc(C)cc(-c2nc(-c3ccncc3)no2)c1	18%
CN1CCN(S(=O)(=O)c2ccc(NC(=O)c3ccco3)cc2)CC1	-10%
COc1ccccc1N1CCN(CCCNC(=O)Nc2ccccc2)CC1	18%
COC(=O)[C@H](C)NC(=O)Nc1ccc(S(N)(=O)=O)cc1	-15%
CCOC(=O)c1c(NC(=O)COC(=O)Cn2cnc3ccccc32)sc(C)c1C	98%

Rewritten as labelled records: part of the list above
molecule: O=C(Nc1ccc(S(=O)(=O)N2CCOCC2)cc1)C1CCCCC1
  AmpC nodet inh = 21%
molecule: Cc1cc(C)cc(-c2nc(-c3ccncc3)no2)c1
  AmpC nodet inh = 18%
